ALR H2O2 inh = human ALR oxidase inhibition via reduced H2O2; AID 485317; inhibition, % (no concentration beside the values); hit rate 3.8% among 290,000; purified ALR, DTT oxidation, H2O2 HRP-luminol luminescence; P55789;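 active means mean and each replicate at 75% or more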;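 further: stock transfer was 7.5 nL into about 7.5 µL; 0% = neutral wells and 100% = wells with inactivated enzyme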
Target sequence (P55789 whole entry, looked up): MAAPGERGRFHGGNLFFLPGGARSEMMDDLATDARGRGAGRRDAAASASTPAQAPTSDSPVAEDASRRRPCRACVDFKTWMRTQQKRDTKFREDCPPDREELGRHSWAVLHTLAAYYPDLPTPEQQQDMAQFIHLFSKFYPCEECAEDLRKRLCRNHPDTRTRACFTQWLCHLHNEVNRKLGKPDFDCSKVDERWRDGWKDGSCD
HNF4A DNA FP = change in binding of human HNF4 alpha to DNA | P41235 | HNF4a-FITC DNA binding, fluorescence polarization, 1 h | activity change, % at 10 µM | hit rate 0.3% among 360,000 | AID 1224865; in the data active means activity change above about 30%, passing the limit was not always enough;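 further: controls were the assay level and a saturating level of protein; the project sought stronger binding though the title names inhibitors; some compounds called inactive have numbers as strong as hits; positive values seem to mean higher polarization but the record does not say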
Target sequence (P41235 whole entry, looked up): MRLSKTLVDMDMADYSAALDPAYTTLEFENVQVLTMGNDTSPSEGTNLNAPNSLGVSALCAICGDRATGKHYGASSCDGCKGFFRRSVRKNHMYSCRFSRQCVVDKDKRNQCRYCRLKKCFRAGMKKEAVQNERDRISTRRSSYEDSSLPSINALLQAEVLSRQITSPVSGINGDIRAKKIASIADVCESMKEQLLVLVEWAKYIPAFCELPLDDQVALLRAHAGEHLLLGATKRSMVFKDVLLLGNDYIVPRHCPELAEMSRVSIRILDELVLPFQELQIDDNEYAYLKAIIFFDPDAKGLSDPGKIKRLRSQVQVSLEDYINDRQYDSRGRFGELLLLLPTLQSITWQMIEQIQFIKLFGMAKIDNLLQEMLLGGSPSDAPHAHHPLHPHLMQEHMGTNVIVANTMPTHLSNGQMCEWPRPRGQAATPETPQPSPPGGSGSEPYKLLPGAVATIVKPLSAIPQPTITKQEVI
FGF22 binding = FGF22 (human) thermal shift binding; calls only at 9.99 µM; Q9HCT0; recombinant FGF22 thermal shift, SYPRO orange fluorescence; percent of sucrose octasulfate shift, DMSO zero; hit rate 1.5% among 340,000;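 active means melting point raised past a set limit in the mean and every replicate; three in four hits are not shown here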
Target sequence (Q9HCT0 whole entry, looked up): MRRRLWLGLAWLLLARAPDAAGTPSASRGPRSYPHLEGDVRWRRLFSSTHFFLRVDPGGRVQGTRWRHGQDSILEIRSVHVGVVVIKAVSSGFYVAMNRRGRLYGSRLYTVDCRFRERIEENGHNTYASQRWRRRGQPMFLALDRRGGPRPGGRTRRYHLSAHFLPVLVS
UCH37 inh = human UCH37 deubiquitinating enzyme inhibition; AID 588478; hit rate 0.33% among 330,000; purified proteasome/UCH37, Ub-AMC cleavage fluorescence; inhibition, % (test concentration not listed);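 active means mean of two replicates above 20%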;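 further: 0% = compound-free wells with enzyme and 100% = wells lacking proteasome; stock transfer was 100 nL into about 20 µL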
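Material: Human UCH37 enzyme supplied as purified proteasome complex | Schedule: 30 min preincubation with enzyme, 25 min cleavage at room temperature | Detection: AMC fluorescence 355/460 nm | Measure: % inhibition of Ub-AMC cleavage fluorescence | Controls: Wells without proteasome as full block, compound-free enzyme plus substrate as uninhibited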
E coli growth = E. coli growth inhibition | Escherichia coli growth, OD600, 23 h; stronger effect = lower value | OD600 absorbance (no concentration beside the values) | hit rate 0.21% among 330,000 | AID 1053175;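 active means OD600 absorbance below the run mean of sample wells minus 3.6 SD, in any replicate, cut at about 0.56 in these data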;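 further: stock transfer was 300 nL into about 60 µL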
Beta2AR agonist = activates human beta-2 adrenergic receptor causing internalization; P07550; Am2.2-beta2AR cells, FAP receptor internalization, flow cytometry; reference of the scale not given here; response, % (concentration not given with the values); hit rate 0.43% among 340,000; AID 504454;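 active means response above a set limit, near 3 SD of response in nonfluorescent compounds, cut at about 42% in these data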;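 further: stock transfer was 100 nL into about 11 µL; a reference agonist was the positive control; negative values mostly stem from fluorescent compounds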
Ecoli rRNA inh = selective bacterial rRNA inhibition in E. coli; E. coli WT GFP vs humanized-ribosome RFP mutants, fluorescence, 24 h; stronger effect = lower value; DMSO median 0, no signal -100; AID 720706; hit rate 1.6% among 350,000; GFP signal change (wild-type ribosome), % (no concentration beside the values);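 active means significant combined selectivity score with lowered wild-type GFP, culture density cut under 30%, mutant RFP and density less affected; inactive means any of these conditions unmet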; further: one replicate is shown; some compounds called inactive have numbers as strong as hits
Ecoli rRNA inh OD600 = second read-out of Ecoli rRNA inh, no call of its own (marks repeat the call); OD600 change, %; measured here: OD600 growth;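 optical density of the mix in the first replicate; 0 = DMSO median and -100 = no signal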
Ecoli rRNA inh RFP = also measured in Ecoli rRNA inh; calls as there; RFP signal change, %; measured here: RFP humanized mutant strains;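 first replicate; 0 = DMSO median and -100 = no signal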
Active calls of the source: *; i = inactive; . = not tested or not shown.

SMILES	ALR H2O2 inh	HNF4A DNA FP	FGF22 binding	UCH37 inh	E coli growth	Beta2AR agonist	Ecoli rRNA inh	Ecoli rRNA inh OD600	Ecoli rRNA inh RFP
O=C(Nn1cnnc1)c1ccc(F)c(S(=O)(=O)N2CCCCC2)c1	-13	-3.6	.	-0.2	0.65	1	.	.	.
O=C(Nc1cccc(S(=O)(=O)N2CCOCC2)c1)c1cc(S(=O)(=O)N2CCOCC2)c(Cl)cc1Cl	.	1.3	i	.	.	12	-8	-11	2.8
CC(=O)Nc1sc2c(c1-c1nc3ccccc3s1)CN(C(C)C)CC2	-43	-4.1	i	-4.6	0.61	-111	-53	-81	-28
C=C(C)CSc1nc2c(c(=O)[nH]c(=O)n2C)n1CCC(C)C	-12	-0.8	i	3.3	0.73	5	-6	-6	6.6
CCCc1cc(=O)oc2c3c(cc(OCC(=O)N[C@@H](CSC)C(=O)O)c12)OC(C)(C)CC3	-1	1.5	i	i	0.69	2	5	-3	0.4
COCc1nnc(NC(=O)CSc2ccccc2)s1	-4	-6.4	.	7.5	0.71	-8	.	.	.
CN(C)Cc1csc(NC(=O)Nc2ccccc2Oc2ccccc2)n1	.	6.9	i	.	.	.	-7	-1	6.5
Cc1cc(=O)oc(C)c1C(=O)NCCc1ccc(F)cc1	-6	-1.1	.	5.9	0.72	-3	.	.	.
COC(=O)C(C)Oc1ccc2cc(-c3ccccc3)c(=O)oc2c1 (stereo not drawn)	5	-5.7	i	i	0.63	6	0	5	-1.9
CCCCCNC(=O)c1ccc2c(=O)n(CC3CCCO3)c(=S)[nH]c2c1 (stereo not drawn)	24	-0.3	i	2.6	0.73	-2	-2	8	1.3
Cc1cccn2c(=O)c3cc(C(=O)NC(C)C)c(=N)n(Cc4ccncc4)c3nc12	5	52*	.	.	.	-3	.	.	.
CC(=O)Nc1cccc(/C(C)=N/NC(=O)c2cccc(S(=O)(=O)N3CCOCC3)c2)c1	.	1.5	i	.	.	9	15	21	2.7
CC(=O)Nc1cccc(Oc2ncccc2[N+](=O)[O-])c1	-36	2.9	i	2.7	0.63	-7	12	21	0.3
CCCNC(=O)C1(C)CCCN(C(=O)c2ccccc2OC(F)(F)F)C1 (stereo not drawn)	.	0.3	i	.	.	.	7	8	3.9
Cc1cc2nc(C3CCCCC3)c(Cc3ccccc3C(F)(F)F)n2c(C)c1Br	.	-2.1	i	.	.	.	7	13	0.1
CCC(CC)c1nnc(NC(=O)CCc2ccccc2OC)s1	.	1.1	i	3.7	0.69	-8	1	5	-2.6
COC(=O)c1ccc(Oc2cc(C)nc(NCc3ccccc3)n2)cc1	-1	-4.2	.	-0.5	0.69	13	.	.	.
Cc1ccc(OCCNC(=O)c2ccccc2OCc2c(C)noc2C)cc1	.	2.0	i	3.6	0.68	4	-14	-28	-1.7
Cc1[nH]c(C)c(S(=O)(=O)NCCc2ccccc2)c1C(=O)N1CCCCC1	1	5.3	i	5.1	0.7	-2	16	13	-3.2
NC(=O)COC(=O)/C=C/c1ccc2ccccc2n1	14	6.7	i	0.3	0.67	4	2	-5	-1.8
CCOC(=O)c1ccc(NC(=O)N2CCCCC2)cc1	0	1.5	.	3.9	0.7	-6	.	.	.
CCCCC1N2CC3([N+](=O)[O-])CN1CC([N+](=O)[O-])(C2)C3(C)C (stereo not drawn)	-3	-3.6	i	0.2	0.69	-10	5	5	-6.5
CCN(CC(=O)Nc1ccc(OC)cc1)C(=O)Cc1coc2cc(C)c(C)cc12	6	2.7	i	4.5	0.68	-5	-35	-48	-5.2
COC(=O)c1c(C)nc2nonc2c1N	.	0.9	i	-265	0.7	-2	22	21	2.2
O=C(C1=C(O)C(=O)N(Cc2cccnc2)C1c1cccc(Oc2ccccc2)c1)c1ccco1 (stereo not drawn)	55	3.5	i	8.7	0.69	6	-14	-19	-1.4
CCOC(=O)[C@]12CCCC=C1N(Cc1ccco1)C(=O)[C@H](CC(=O)N1CCSCC1)C2	.	0.2	i	.	.	.	9	6	-3.6
CCCCCCCCSc1nnc(/N=C/N(C)C)s1	-9	-4.4	i	.	.	-8	-10	1	4.4
CCOc1ccc2oc(C(=O)O)c(C)c2c1	.	3.5	i	-2.3	0.71	3	-2	-1	-0.8
CCOC(=O)C1=C(Cn2cnc3ccccc32)NC(=O)NC1c1ccc(OC)cc1 (stereo not drawn)	.	-1.7	.	2.9	0.69	1	.	.	.
CN(CC(=O)Nc1ccc2c(c1)OCCO2)S(=O)(=O)c1cccc2cccnc12	11	4.5	i	8.2	0.73	0	-2	-6	0.7
CC(CCc1ccccc1)NC(=O)COc1cc(F)ccc1[N+](=O)[O-] (stereo not drawn)	-3	7.0	i	3.7	0.7	-5	-2	-3	1.6
COCCNC(=O)C1CCCN(C(=O)c2cccnc2Oc2ccccc2)CC1 (stereo not drawn)	.	-2.0	i	.	.	.	9	16	0.4
O=C(Nc1ccc2c(c1)OCCO2)c1ccc2ccccc2n1	17	-1.6	i	3.3	0.74	6	16	11	-1.1
Cc1cccc(C(=O)NCCNC(=O)c2ccco2)c1	-1	-0.9	i	1.1	0.68	6	-1	3	3.0
Cn1cc([N+](=O)[O-])c(C(=O)Nc2ccc(-c3nc4ccccc4[nH]3)cc2)n1	-7	-1.5	i	6.1	0.69	-9	-26*	14*	-2.7*
CCOC(=O)c1sc(NC(=O)CSc2nnc(-c3ccco3)n2CC)c(C(=O)OCC)c1C	-3	-2.1	i	2.5	0.74	-8	-8	-5	1.1
O=C(CN1C(=O)C(=O)c2ccccc21)c1ccccc1	-14	-6.4	i	1.6	0.64	0	-1	9	4.3
O=C(O)Cc1ccc(O)c(O)c1	98*	-0.7	i	-0.4	0.61	8	.	.	.
COc1cccc(CN2C(=O)C(C)N(C(=O)c3ccccc3)c3ccccc32)c1 (stereo not drawn)	-7	1.4	i	1.2	0.71	13	-28	-41	-18
CSc1ccc(Cl)c(C(=O)N2CCOc3ccccc32)c1	-5	-0.1	i	4.9	0.66	13	-28	-36	-19
CCOC(=O)c1cccc(NC(=O)c2ccc(NC(=O)c3ccco3)cc2)c1	-16	-0.6	i	-3.7	0.66	-8	-1	4	-1.2
C=CCSc1nc2c(cnn2-c2ccccc2)c(=O)n1N	-4	-2.3	i	0.2	0.62	12	-17	-13	-4.0
COc1ccc(N(CC(O)CN2C(=O)NC(C)(C)C2=O)S(=O)(=O)c2ccc(C)cc2)cc1 (stereo not drawn)	0	9.7	.	2.1	0.68	-1	.	.	.
COc1ccccc1NC(=O)C(C)OC(=O)CCNS(=O)(=O)c1ccc(C)c(C)c1 (stereo not drawn)	0	2.4	i	3.4	0.69	-4	-7	-8	1.5
CCOC(=O)c1c(C)[nH]c2ccc(O)cc12	34	-1.6	.	2.0	0.69	5	.	.	.

Five entries from above, with two lines to a compound.
Second line of a record: ALR H2O2 inh, HNF4A DNA FP, FGF22 binding, UCH37 inh, E coli growth, Beta2AR agonist, Ecoli rRNA inh, Ecoli rRNA inh OD600, Ecoli rRNA inh RFP
O=C(Nn1cnnc1)c1ccc(F)c(S(=O)(=O)N2CCCCC2)c1
→ -13, -3.6, ., -0.2, 0.65, 1, ., ., .
CCN(CC(=O)Nc1ccc(OC)cc1)C(=O)Cc1coc2cc(C)c(C)cc12
→ 6, 2.7, i, 4.5, 0.68, -5, -35, -48, -5.2
Cc1cc(=O)oc(C)c1C(=O)NCCc1ccc(F)cc1
→ -6, -1.1, ., 5.9, 0.72, -3, ., ., .
CCCCCNC(=O)c1ccc2c(=O)n(CC3CCCO3)c(=S)[nH]c2c1 (stereo not drawn)
→ 24, -0.3, i, 2.6, 0.73, -2, -2, 8, 1.3
CCC(CC)c1nnc(NC(=O)CCc2ccccc2OC)s1
→ ., 1.1, i, 3.7, 0.69, -8, 1, 5, -2.6

(further entries)
SMILES	ALR H2O2 inh	HNF4A DNA FP	FGF22 binding	UCH37 inh	E coli growth	Beta2AR agonist	Ecoli rRNA inh	Ecoli rRNA inh OD600	Ecoli rRNA inh RFP
COc1cccc(-c2nc(Oc3cccc(C)c3C)c3ccccc3n2)c1O	1	-5.1	.	3.9	0.68	-1	.	.	.
CCc1cc2c(=O)c(-c3nc(C)cs3)coc2cc1OC(C)C(=O)NCCO (stereo not drawn)	.	3.8	.	-6.5	0.72	17	.	.	.
Cc1noc(C)c1S(=O)(=O)N(C)CC(=O)NCc1ccccc1	.	2.8	.	3.0	0.77	-2	.	.	.
CCOC(=O)C(=O)NC(C)c1ccccc1 (stereo not drawn)	-3	3.9	i	-0.1	0.66	1	16	13	0.2
CSCC[C@@H](Nc1nc(-c2ccccc2)nc2c1oc1ccccc12)C(=O)O	16	1.6	.	-0.3	0.7	-16	.	.	.
Cn1cccc1C(=O)N1CCN(c2cccc(C(F)(F)F)c2)CC1	-40	-4.2	.	2.5	0.72	0	.	.	.
COc1cc(C(C)=O)ccc1OCC(O)CN1CCN(c2ccc(F)cc2)CC1 (stereo not drawn)	29	0.1	i	.	.	-10	-8	-6	-8.2
COc1ccc(/C=C/c2c(-c3ccc(OC)cc3)oc3ccccc23)cc1	-1	-4.0	i	-224	.	5	2	11	-2.2
COC(=O)c1ccc(C(=O)Nc2ccc3c(c2)C(=O)NC3=O)cc1	-2	0.6	i	-30	0.68	-4	0	11	-1.6
CN(C)S(=O)(=O)c1ccc(/C(O)=C2/C(=O)C(=O)N(CCN3CCCCC3)C2c2cccnc2)cc1 (stereo not drawn)	.	-5.0	i	6.1	0.7	3	1	1	0.5
COc1ccc(N2C(=O)NC(NC(=O)C(C)(C)C)(C(F)(F)F)C2=O)cc1 (stereo not drawn)	-6	-1.6	i	-0.7	0.61	-4	3	2	-0.6
O=C(NCc1cccnc1)c1cc(S(=O)(=O)N2CCOCC2)c(Cl)cc1Cl	13	-2.0	i	3.5	0.72	-5	4	12	-3.4
O=C1c2cccnc2C(=O)N1CNc1ccc(Cl)cc1	-4	6.4	i	0.9	0.68	1	20	15	1.1
COc1ccc(NS(=O)(=O)c2c(C(=O)N3CCCCCC3)c(C)n(C)c2C)cc1	-3	1.8	i	5.2	0.7	3	-2	6	-0.6
O=S(=O)(c1ccc(NC(=S)N2CCCCC2)cc1)N1CCCCC1	.	-0.1	i	.	.	.	-4	-10	-0.1
COC(=O)c1ccc(COc2cccn3c(N(C)C(=O)CCC4CCCC4)c(C)nc23)cc1	.	1.2	i	.	.	.	-8	-24	2.5
CCOc1cc(CNCc2ccncc2)cc(Cl)c1OC	-2	-0.1	i	2.6	0.67	-3	19	16	-5.7
Cc1ccc(C(=O)C(C)OC(=O)CN2C(=O)NC3(CCCC3)C2=O)cc1 (stereo not drawn)	-12	4.0	i	-2.5	0.63	2	1	1	-1.7
Cc1c(Br)c([N+](=O)[O-])nn1CC(=O)Nc1nccs1	1	-6.6	i	2.9	0.72	-2	15	-13	1.0
COc1ccc(Oc2cn[nH]c2-c2ccc(O)cc2O)cc1	30	-1.6	.	0.0	0.7	7	.	.	.
Cc1nonc1OCCn1c([N+](=O)[O-])cnc1C	-4	3.1	i	4.7	0.66	4	12	12	0.1
COc1cccc(Nc2nc3ccccc3nc2NS(=O)(=O)c2cccs2)c1	6	-0.9	.	-7.1	0.68	-39	.	.	.
CCOC(=O)c1sc(N(Cc2ccccc2)C(=O)CSc2ncn[nH]2)nc1C	.	-1.6	.	2.7	0.76	-7	.	.	.
Cc1ccccc1NCc1ccccc1O	100*	7.5	.	2.6	0.71	4	.	.	.
COc1cc(C(C)=O)ccc1OCC(=O)Nc1ccc(C)c(S(=O)(=O)N2CCCCCC2)c1	-2	0.0	i	0.0	0.71	31	.	.	.

Bioassay records: PubChem, several laboratories

The list is partial; rates above refer to the full screens.
